RecA splice inh – inhibitors of M. tuberculosis RecA intein splicing. P9WHJ3. cell-free RecA intein splicing, fluorescence. inhibition, %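 (about 9 µM by stock and volumes)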. 290,000 compounds, 0.75% hits. AID 2221; in the data active means inhibition above about 30%; inconclusive means no clear call, values can overlap the other calls;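 further: 0% = vehicle wells and 100% = reference inhibitor control wells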
Target sequence (P9WHJ3 whole entry, looked up, canonical isoform): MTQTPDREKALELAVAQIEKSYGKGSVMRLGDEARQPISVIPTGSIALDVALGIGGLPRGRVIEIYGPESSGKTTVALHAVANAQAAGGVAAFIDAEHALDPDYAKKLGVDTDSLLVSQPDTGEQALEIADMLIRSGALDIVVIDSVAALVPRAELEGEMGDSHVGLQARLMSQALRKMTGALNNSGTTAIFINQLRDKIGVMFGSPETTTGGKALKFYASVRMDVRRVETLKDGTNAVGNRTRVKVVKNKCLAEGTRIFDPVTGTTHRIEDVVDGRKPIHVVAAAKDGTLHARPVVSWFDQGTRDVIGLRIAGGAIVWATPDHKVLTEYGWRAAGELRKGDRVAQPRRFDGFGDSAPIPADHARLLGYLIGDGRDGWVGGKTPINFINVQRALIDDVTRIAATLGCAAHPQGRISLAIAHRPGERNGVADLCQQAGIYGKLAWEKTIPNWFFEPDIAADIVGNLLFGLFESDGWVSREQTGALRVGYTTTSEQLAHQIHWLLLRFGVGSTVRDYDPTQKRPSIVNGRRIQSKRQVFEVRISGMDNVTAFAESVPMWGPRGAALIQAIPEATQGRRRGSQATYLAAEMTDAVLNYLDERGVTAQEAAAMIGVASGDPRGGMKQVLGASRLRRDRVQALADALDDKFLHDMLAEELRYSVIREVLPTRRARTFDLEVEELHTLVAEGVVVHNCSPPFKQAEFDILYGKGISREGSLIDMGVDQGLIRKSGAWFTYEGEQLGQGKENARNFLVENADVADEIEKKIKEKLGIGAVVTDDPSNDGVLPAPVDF
Mtb bLac sens – beta-lactam sensitization of Mtb H37Rv | M. tuberculosis H37Rv growth with meropenem, percent inhibition; hits of this screen are not shown here | inhibition, % at 25 µM | 330,000 compounds, 0.27% hits;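 active means about 74% or more and at least 40 points above the plate without the antibiotic, then above 30% in a dose series; inconclusive means first-round hits that could not be retested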;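 further: growth measured after seven days incubation then overnight dye step; 0% = bacteria only wells and 100% = bacteria with antibiotic; twin plates without the antibiotic show which effects depend on it; some results filed as inactive read as strong as hits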
YopH PTP inh – blocks Yersinia enterocolitica YopH tyrosine phosphatase | AID 898 | 140,000 compounds, 0.16% hits | inhibition, %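 (about 10 µM by stock and volumes)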 | fluorescence Ex485/Em525;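 active means inhibition of 50% or more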;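 further: controls were vehicle for no effect and minimum signal wells for full effect; inactives centre near -20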
Arbovirus anti – arbovirus infection inhibition. arbovirus infection cell-based antiviral screen. inhibition, % at 10 µM. 200,000 compounds, 0.37% hits;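 active means inhibition from about 30%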;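 further: bluetongue infection of BSR cells; cell survival read as ATP light after 72 h; 0% = infected wells without compound and 100% = uninfected wells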
Mtb H37Rv – M. tuberculosis H37Rv growth inhibitors, H37Rv strain (AID 1626); inhibition, % at 10 µM; hits with a dose series show IC50 in µM; 220,000 compounds, 0.95% hits; M. tuberculosis H37Rv growth inhibition; higher % means a stronger effect;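 active means confirmed in a dose series; inconclusive means inhibition above 80% but not taken into the dose series; inactive means below 80% or under 30% at every dose of the series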;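 further: bacteria incubated seven days before Alamar blue readout; 0% = bacteria only wells and 100% = bacteria with antibiotic wells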
Arbovirus anti repeat – also measured in Arbovirus anti; calls as there; inhibition, %; measured here: 10K subset replicate screen; many hits read low in the repeat;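 first of two repeat runs on a subset; 0% = infected and 100% = uninfected wells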
An asterisk follows results filed as active; ? = inconclusive; . = not tested or not shown.

SMILES	RecA splice inh	Mtb bLac sens	YopH PTP inh	Arbovirus anti	Mtb H37Rv	others
O=C1CC(c2ccc(F)cc2)Sc2ccccc2N1 (stereo not drawn)	0.5	-2	-8	2	-3%
Cc1ccccc1NC(=O)COC(=O)CCc1nc2ccccc2c(=O)[nH]1	-1.5	-10	.	-2	2%
O=C(CSc1nnc(-c2cccs2)o1)N1CCCCC1	-122	83	-51	-3	2%	Arbovirus anti repeat=-3
O=C(COC(=O)C1(c2ccc(Cl)cc2)CCCC1)N1CCc2ccccc21	-4.2	5	-16	-6	-5%
Cc1c(NC(=O)/C(C#N)=C\c2cccs2)c(=O)n(-c2ccccc2)n1C	-0.8	-5	-12	-5	-7%
O=C1c2ccccc2NC(c2cccc([N+](=O)[O-])c2)N1CCc1ccccc1 (stereo not drawn)	8.3	-3	.	.	.
Cc1ccc(-c2ccc(/C=N/n3cnnc3)o2)cc1	0.8	94	.	.	74%
O=C(CSc1nc(NS(=O)(=O)c2ccccc2)cc(=O)[nH]1)Nc1ccc(F)cc1	-7.5	-7	-40	-2	1%
CN(Cc1nc2ccccc2[nH]1)C(=O)C1CCC(=O)N(C2CCCC2)C1 (stereo not drawn)	0.4	10	.	.	.
Cc1ccc(C(=O)OCC(=O)c2c(N)n(C)c(=O)n(C)c2=O)cc1S(=O)(=O)N1CCCCC1	3.6	?	-10	2	6%
O=C(COc1cc2oc(=O)cc(-c3ccccc3)c2cc1Cl)NCc1ccccn1	2.3	8	.	.	.
CC1CCCN(c2ccc(/C=C(\C#N)c3nn(-c4ccccc4)c(N)c3C#N)cc2[N+](=O)[O-])C1 (stereo not drawn)	8.6	15	0	-5	3%
CNC(=O)c1cc2c(ccc3ccccc32)oc1=N	-213	35	-21	-4	-1%
CCCNc1nc(C)cc(-c2cc(C(=O)NC3CCCC3)on2)n1	1.6	-3	.	.	-3%
Cc1ccc(S(=O)(=O)NC2CCCC(C(=O)O)C2)cc1 (stereo not drawn)	0.6	-4	-42	1	4%
CCN(CC)c1ccc(/C=N/Nc2cccc(C)c2)c(O)c1	11	-4	58*	-37	12%
C#CCOCCOCCOCCNc1nc(N2CCN(C(=O)[C@H](CCC(=O)O)n3cc(C(N)Cc4ccc(O)cc4)nn3)CC2)nc(N2CCN(C(=O)[C@H](CCCCN)n3cc(C(N)[C@H](C)CC)nn3)CC2)n1 (stereo partly drawn)	0.3	.	.	.	-14%
O=C(Cn1cnc2cc([N+](=O)[O-])ccc2c1=O)NCc1ccc(Cl)cc1	-4.4	12	.	-2	7%
COc1ccc(-c2noc(CN(C(=O)c3ccoc3C)C(C)C)n2)cc1	4.1	-4	.	.	.
O=C(O)CSc1nnc(NC(=O)CN2CCOCC2)s1	-0.9	-1	.	.	.
Cc1ccc(S(=O)(=O)N(C)C)cc1NC(=O)c1cncc(Br)c1	-0.6	1	-28	11	4%
O=C1CSc2ccc(S(=O)(=O)CCC(=O)NC3CCCCC3)cc2N1	-6.6	-3	.	.	.
COC(=O)N(c1ccc(OC)cc1)P1(=S)OCCC(C)O1 (stereo not drawn)	1.5	25	-6	-5	1%
CC(OC(=O)c1ccccc1NCCO)C(=O)NC1CCCCC1C (stereo not drawn)	-6.1	3	.	.	.
CN(C)c1nc(N(C)C)n(C(=O)c2ccc(F)cc2)n1	-4.0	-1	.	4	2%
COc1ccc(/C(O)=C2/C(=O)C(=O)N(Cc3cccnc3)C2c2ccncc2)cc1F (stereo not drawn)	.	-5	-44	10	-1%
CCc1cc2ccc(C)cc2nc1SCC(=O)Nc1c[nH]c(=O)[nH]c1=O	.	-1	.	5	-15%
O=C(c1ccccc1)N(Cc1ccccc1)Cc1ccccc1	1.0	1	.	.	.
COc1cccc(Nc2nc3ccccc3n2C(C)C)c1	0.6	1	-44	0	-6%
COCCNC(=O)c1cc(Sc2nnc(C)s2)nc2ccccc12	-1.2	-7	.	.	1%
Cn1c(NCc2cccs2)nc2ccccc21	1.0	-2	-1	7	2%
O=C(COC(=O)/C=C/c1ccc2c(c1)OCO2)Nc1ccc(S(=O)(=O)N2CCCC2)cc1	0.7	4	-5	3	3%
O/N=C1\CCCc2ccc(Cl)cc21	4.1	6	-16	-1	-1%
NC(=O)CSc1nnc2ccc(-c3ccc(Cl)cc3)nn12	-2.9	-4	.	-1	3%
CCOc1ccccc1N1CCN(CC(O)COCc2cccs2)CC1 (stereo not drawn)	1.3	-7	.	.	.
COc1ccc2c(C)cc3nnnn3c2c1	-1.8	-5	.	.	.
CCOc1ccccc1NC(=O)C1CCCN(S(=O)(=O)c2ccccc2)C1 (stereo not drawn)	1.9	7	.	.	.
COc1cccc(OC)c1OCCNCC1CSc2ccccc2O1 (stereo not drawn)	-1.2	1	.	.	-1%
CCCN(CC(=O)Nc1cccc(S(N)(=O)=O)c1)CC(=O)Nc1ccc(F)c(F)c1F	1.6	-2	.	.	-2%
CN(C)C(CNC(=O)c1coc2ccccc2c1=O)c1ccccc1 (stereo not drawn)	-6.4	7	.	.	.
CC(=O)c1ccc(N=Cc2c(O)n(-c3cc(Cl)ccc3N3CCOCC3)c(=O)c3ccccc23)cc1	-2.8	72	-20	-24	58%
CCCCN(CCCC)c1nc(OC)nc(-n2nnc(C(C)=O)c2C)n1	12	33	-10	-15	8%
Cc1cc([N+](=O)[O-])nn1CC(=O)N(C)C1CCCCC1	-0.7	-4	.	.	.
Cc1ccccc1-c1nc(CS(=O)(=O)CC(=O)Nc2cc(F)ccc2F)c(C)o1	-0.8	2	-37	0	-6%
C=CCOc1ccc(CNCc2cccnc2)cc1OCC	-1.3	-3	.	.	.
COCCn1c(SCC(=O)NCc2ccco2)nnc1-c1c[nH]c2ccccc12	0.6	4	-39	4	-1%
Cc1c(Cl)cccc1NC(=O)c1cc(C2CC2)on1	-2.7	75	-36	-14	73%
Cc1ccc(NCCC(=O)c2cccs2)cc1Cl	-1.7	100	0	-2	35µM*
COc1ccc(C(=O)Nc2ccc(Cl)c(S(=O)(=O)Nc3ccccc3OC)c2)cc1	4.1	8	-23	14	5%
COc1ccc2c(c1)nc(SCC(C)O)n2C (stereo not drawn)	2.1	-2	-19	-6	5%
O=C(CNc1ccccc1)N/N=C/c1ccc2c(c1)OCCO2	0.9	6	-26	8	-1%
COc1ccc(CN2C(=O)CN=C2Nc2cccc(C)c2C)cc1	-0.9	-1	-50	6	.
CC(C)CNC(=O)C1CCN(Cc2ccc(OCc3ccccc3)cc2)CC1	1.2	-1	-6	-23	9%
COc1cc(/C=C/C(=O)c2cccc([N+](=O)[O-])c2)cc(OC)c1OC	-1.4	100	-20	-37	3.8µM*
Cc1cc(NC(=O)COn2nnc3ccc(S(C)(=O)=O)cc32)ccc1Br	-12	52	.	.	23%
O=[N+]([O-])c1ccc(O)c(Nc2c([N+](=O)[O-])ccc3nonc23)c1	0.4	14	.	.	.
COc1ccccc1C(=O)NNC(=O)c1ccc(C)cc1	-0.9	-22	.	.	.
CCn1c(=O)n(CC)c2cc(N3CCCC3)c(NC(=O)c3cccc(Cl)c3)cc21	-5.3	76	.	.	.
CC(C)c1nc(SCC(=O)Nc2nc3c(s2)CCCC3)c2ccccc2n1	29	1	-37	-14	-8%
COc1ccc(S(=O)(=O)N2CCC(C(=O)NCCCc3ccccc3)CC2)cc1	-1.5	2	.	.	.

(listing goes on)
SMILES	RecA splice inh	Mtb bLac sens	YopH PTP inh	Arbovirus anti	Mtb H37Rv	others
CCC(=NCc1ccco1)c1c(O)n(-c2ccc(OC)cc2)c(=O)[nH]c1=O	-0.8	-10	-23	0	-3%
CN(C(=O)CSc1nnc(CN2CCCC2)n1Cc1ccccc1)c1ccccc1	0.6	-8	.	.	.
Cc1ccc(-c2nc(Nc3cccc(O)c3)c3ccccc3n2)cc1	4.1	6	.	.	.
O=C(COC(=O)COc1ccccc1F)Nc1ccc(Cl)cn1	-2.0	-10	.	.	-11%
O=C(CSc1nnc(-c2ccc(F)cc2)o1)N1CCCC1	-0.3	-3	.	.	.
COCCCNc1nc2c(-c3cccc(C)c3)nnn2c2ccccc12	-25	1	.	12	6%
COc1ccc(C(C)=O)cc1COC(=O)CNC(=O)c1ccc(Cl)cc1	2.9	-3	-22	0	1%
CCOc1ccc(-c2cn3ccccc3n2)cc1[N+](=O)[O-]	-2.4	2	-18	-2	-2%
Cc1ccc(S(=O)(=O)N2CCCCC2)cc1C(=O)N(CCc1ccccc1)Cc1ccccc1	6.7	-11	.	.	.
COC(=O)N1CCCc2cc(C)ccc21	-2.7	-8	.	0	-3%
COc1cccc(C2CC(c3ccccc3)Nc3ncnn32)c1 (stereo not drawn)	-3.4	4	-14	7	-5%
O=C(CN(C(=O)CNC(=O)c1cccs1)c1ccccc1F)NC1CCCC1	2.7	1	.	.	.
Cc1cc(=O)n2nc(N3CCC(C(=O)Nc4cccc(Cl)c4C)CC3)sc2n1	-2.5	4	.	.	.
CCCn1cc(CN2CCCC(C(=O)c3cccc(OC)c3)C2)c(C)n1 (stereo not drawn)	0.2	0	.	1	10%
CCOC(=O)N1CCN(C(=O)c2cc3c(=O)n4ccccc4nc3s2)CC1	-54	-11	.	.	.
O=[N+]([O-])c1ccc2nc(-c3ccccc3)oc2c1	-1.6	0	.	-1	3%
CN(CC(=O)Nc1ccc2c(c1)OCCO2)S(=O)(=O)c1ccc(Br)s1	-0.1	-12	7	-6	0%
CN(CC(=O)NCCc1ccccc1)S(=O)(=O)c1ccccc1	-0.1	-3	.	-1	2%
Cc1cc(C)n2ncc(C(=O)O)c2n1	1.5	-4	.	2	1%
C[C@H](NC(=O)c1cc2cc(Cl)ccc2n1C)C(=O)N1CCC[C@H]1C(=O)O	3.7	-3	.	.	.

A stretch from further up:
SMILES	RecA splice inh	Mtb bLac sens	YopH PTP inh	Arbovirus anti	Mtb H37Rv	others
COCCCNc1nc2c(-c3cccc(C)c3)nnn2c2ccccc12	-25	1	.	12	6%
COc1ccc(C(C)=O)cc1COC(=O)CNC(=O)c1ccc(Cl)cc1	2.9	-3	-22	0	1%
CCOc1ccc(-c2cn3ccccc3n2)cc1[N+](=O)[O-]	-2.4	2	-18	-2	-2%
Cc1ccc(S(=O)(=O)N2CCCCC2)cc1C(=O)N(CCc1ccccc1)Cc1ccccc1	6.7	-11	.	.	.
COC(=O)N1CCCc2cc(C)ccc21	-2.7	-8	.	0	-3%
COc1cccc(C2CC(c3ccccc3)Nc3ncnn32)c1 (stereo not drawn)	-3.4	4	-14	7	-5%
O=C(CN(C(=O)CNC(=O)c1cccs1)c1ccccc1F)NC1CCCC1	2.7	1	.	.	.
Cc1cc(=O)n2nc(N3CCC(C(=O)Nc4cccc(Cl)c4C)CC3)sc2n1	-2.5	4	.	.	.
CCCn1cc(CN2CCCC(C(=O)c3cccc(OC)c3)C2)c(C)n1 (stereo not drawn)	0.2	0	.	1	10%
CCOC(=O)N1CCN(C(=O)c2cc3c(=O)n4ccccc4nc3s2)CC1	-54	-11	.	.	.
O=[N+]([O-])c1ccc2nc(-c3ccccc3)oc2c1	-1.6	0	.	-1	3%
CN(CC(=O)Nc1ccc2c(c1)OCCO2)S(=O)(=O)c1ccc(Br)s1	-0.1	-12	7	-6	0%
CN(CC(=O)NCCc1ccccc1)S(=O)(=O)c1ccccc1	-0.1	-3	.	-1	2%
Cc1cc(C)n2ncc(C(=O)O)c2n1	1.5	-4	.	2	1%
C[C@H](NC(=O)c1cc2cc(Cl)ccc2n1C)C(=O)N1CCC[C@H]1C(=O)O	3.7	-3	.	.	.

Going on with the list:
SMILES	RecA splice inh	Mtb bLac sens	YopH PTP inh	Arbovirus anti	Mtb H37Rv	others
O=S(=O)(NCC(c1ccco1)N1CCN(c2ccccc2)CC1)c1ccc(F)cc1 (stereo not drawn)	-1.9	4	-15	8	-6%
Cc1ccc(C(=S)N2CCCCCC2)cc1	-4.4	4	.	.	.
CC(C)(C)c1nnc2sc(SCC(=O)c3ccc(Cl)cc3)nn2c1=O	2.6	-7	21	-3	-8%
COc1ccccc1C(=O)NNC(=O)C1CC=CCC1 (stereo not drawn)	6.8	7	.	.	.
CSc1ccccc1NC(=O)c1cccc(S(=O)(=O)N2CCN(C)CC2)c1	1.2	2	.	.	.
CC(=O)c1ccccc1OCC(O)Cn1ccnc1 (stereo not drawn)	-2.8	1	.	.	.
N#Cc1c(NCCN)nc(NCc2ccccc2)c2c1CCN(Cc1ccccc1)C2	.	.	0	.	6%
CCN(CC)S(=O)(=O)c1ccc(OC)c(NC(=O)CCS(=O)(=O)Cc2ccccc2)c1	0.6	-7	.	.	.
Cc1onc(C(=O)NN)c1-c1csc(COc2ccccc2)n1	.	4	.	.	-9%

This is a subset. The share of hits here may be higher or lower than overall.
